Env fusion inh = inhibitors of HIV-1 Env-driven cell-cell fusion, primary screen, HeLa-JRFL effector, CEM21 target cells, luciferase; inhibition, % at 12.3 µM; 360,000 compounds, 1.1% hits;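 active = mean replicate inhibition score of at least 50 and every replicate individually at or above 50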;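 note: 0% = plate neutral controls and 100% = maraviroc near 300 nM; one replicate is shown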
UUG fidelity = modulators of yeast start codon fidelity, primary screen, whole organism, S. cerevisiae, single point, plate reader; activity score, % at 18.7 µM; S. cerevisiae UUG-firefly luciferase reporter, luminescence/redox ratio; AID 602363, 2012; 350,000 compounds, 0.13% hits;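 active = replicate mean at a twofold rise or more, about +100% in these data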;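 note: firefly luciferase made from a UUG start codon reports start codon fidelity; reporter light over untreated wells divided by growth signal over untreated wells; some hits fall short of that in this replicate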
Numbers without * were called inactive; & = joins results of further samples; [ ] = dose if it differs, or a comment.

Values run as follows: Env fusion inh | UUG fidelity
C[C@@H]1CCCCO[C@@H](CN(C)C(=O)Cc2ccccc2)[C@H](C)CN([C@@H](C)CO)C(=O)c2cc(NS(=O)(=O)c3ccccc3)ccc2O1
→ -19.9[16.7 µM] | 8.0
Cc1noc(C)c1S(=O)(=O)Nc1ccc2c(c1)C(=O)N([C@H](C)CO)C[C@@H](C)[C@H](CN(C)S(=O)(=O)c1cccs1)OCCCC[C@H](C)O2
→ -27.8[16.7 µM] | 0.9
C[C@H]1CN([C@@H](C)CO)C(=O)c2cccc(NC(=O)c3ccc(-c4nccs4)cc3)c2O[C@@H]1CN(C)Cc1ccc(-c2ccccc2)cc1
→ 26.4[16.7 µM] | 5.1
Cc1noc(C)c1NC(=O)Nc1ccc2c(c1)C(=O)N([C@H](C)CO)C[C@@H](C)[C@H](CN(C)S(=O)(=O)c1ccccc1)O2
→ 11.7[16.7 µM] | -0.8
C[C@H](CO)N1C[C@H](C)[C@H](CN(C)C(=O)Cc2ccccn2)Oc2ncc(-c3cccc(C(=O)N(C)C)c3)cc2C1=O
→ -2.9[16.7 µM] | 7.4
C[C@H](CO)N1C[C@H](C)[C@@H](CN(C)C)Oc2cc(Br)ccc2S1(=O)=O
→ 3.0[16.7 µM] | 11.4
CCCN(C)C[C@@H]1Oc2ncc(-c3ccccc3)cc2C(=O)N([C@H](C)CO)C[C@@H]1C
→ -4.9&-16.1[16.7 µM] | -6.8
C[C@@H]1CN([C@@H](C)CO)C(=O)c2cc(C#CC3(O)CCCC3)cnc2O[C@@H]1CN(C)Cc1ccncc1
→ -23.1[16.7 µM] | -5.4
C[C@H]1CCCCO[C@H](CN(C)Cc2ccccc2)[C@@H](C)CN([C@@H](C)CO)C(=O)c2cc(NC(=O)Nc3cccc4ccccc34)ccc2O1
→ 14.0[16.7 µM] | 25.7
C[C@@H]1CN([C@H](C)CO)S(=O)(=O)c2ccc(C#CCC3CCCC3)cc2O[C@@H]1CN(C)C(=O)CN(C)C
→ -0.9[16.7 µM] | 128.9*
COCC(=O)Nc1ccc2c(c1)C(=O)N(C)[C@@H]1CC[C@@H](CC(=O)O)O[C@@H]1CO2
→ -28.7[16.7 µM] | -3.1
O=C(C[C@@H]1C=C[C@@H](NS(=O)(=O)c2ccccc2)[C@H](CO)O1)NCCN1CCCCC1
→ -7.1[16.7 µM] | -5.5
C[C@H](CO)N1C[C@H](C)[C@H](CN(C)S(C)(=O)=O)Oc2c(NS(=O)(=O)c3cccs3)cccc2C1=O
→ 1.6[16.7 µM] | -6.8
C[C@@H]1CCCCO[C@H](CN(C)C(=O)Nc2ccc(C(F)(F)F)cc2)[C@@H](C)CN([C@@H](C)CO)C(=O)c2cc(NC(=O)C3CCCCC3)ccc2O1
→ -8.2[16.7 µM] | 5.4
C[C@H](CO)N1C[C@H](C)[C@H](CN(C)Cc2ccc(-c3ccccc3)cc2)Oc2c(NC(=O)Nc3ccc4c(c3)OCO4)cccc2C1=O
→ -2.2[16.7 µM] | 12.8
C[C@H]1CCCCO[C@@H](CN(C)C(=O)c2ccncc2)[C@@H](C)CN([C@@H](C)CO)C(=O)c2cc(NS(=O)(=O)c3ccccc3)ccc2O1
→ -4.6[16.7 µM] | -9.2
O=C(C[C@H]1C[C@@H]2c3cc(NC(=O)CC4CC4)ccc3O[C@@H]2[C@@H](CO)O1)NCC(F)(F)F
→ 1.7[16.7 µM] | 0.0
C[C@@H]1CN([C@H](C)CO)C(=O)c2cc(-c3cncnc3)cnc2O[C@@H]1CN(C)C(=O)Cc1ccccc1
→ -4.3[16.7 µM] | -3.6
C[C@@H]1CN([C@H](C)CO)C(=O)Cc2cc(NS(C)(=O)=O)ccc2O[C@H]1CN(C)C(=O)NC1CCCCC1
→ -11.7[16.7 µM] | 0.3
COc1ccc(NC(=O)N(C)C[C@H]2OCCCC[C@@H](C)Oc3ccc(NS(C)(=O)=O)cc3C(=O)N([C@@H](C)CO)C[C@@H]2C)cc1
→ -31.7[16.7 µM] | 0.0
COc1ccc(S(=O)(=O)N(C)C[C@@H]2Oc3cc(-c4ccccc4OC)ccc3S(=O)(=O)N([C@H](C)CO)C[C@H]2C)cc1
→ 29.1[16.7 µM] | -13.4
C[C@@H]1CN([C@H](C)CO)C(=O)c2cc(NC(=O)NC3CCCCC3)ccc2O[C@@H](C)CCCCO[C@@H]1CN(C)S(=O)(=O)c1cn(C)cn1
→ -7.7[16.7 µM] | 10.4
C[C@H](CO)N1C[C@H](C)[C@H](CN(C)Cc2ccc(C(F)(F)F)cc2)Oc2ccc(NS(=O)(=O)c3ccc(F)cc3)cc2CC1=O
→ 3.0[16.7 µM] | 0.5
N#C[C@H]1[C@H](c2ccc(C#Cc3ccc(F)cc3)cc2)[C@H](CO)N1C(=O)C1CCC1
→ 24.9[16.7 µM] | 4.9
COC(=O)C[C@@H]1CC[C@@H]2[C@H](COc3ccc(NS(=O)(=O)c4ccc(C)cc4)cc3C(=O)N2C)O1
→ 0.8[16.7 µM] | -12.3
Cc1ccc(S(=O)(=O)Nc2ccc3c(c2)CC(=O)N([C@H](C)CO)C[C@H](C)[C@H](CN(C)C(=O)Nc2cccc4ccccc24)O3)cc1
→ -5.9[16.7 µM] | 20.4
COc1ccc(NC(=O)Nc2cccc3c2O[C@H](CN(C)C(=O)Nc2cccc4ccccc24)[C@H](C)CN([C@H](C)CO)C3=O)cc1
→ -3.7[16.7 µM] | -7.2
CCCC#Cc1ccc2c(c1)O[C@@H](CN(C)C(=O)C1CCCCC1)[C@@H](C)CN([C@@H](C)CO)S2(=O)=O
→ 29.5[16.7 µM] | 1.6
O=C(C[C@@H]1C[C@@H]2c3cc(NS(=O)(=O)c4ccc(F)cc4)ccc3O[C@@H]2[C@@H](CO)O1)NCc1ccccc1F
→ 14.4[16.7 µM] | 11.4
C[C@H]1CN([C@@H](C)CO)S(=O)(=O)c2ccc(-c3ccccc3)cc2O[C@@H]1CN(C)C(=O)CC1CC1
→ -12.4[16.7 µM] | 7.1
C[C@@H]1CN([C@@H](C)CO)C(=O)c2cc(-c3cccc(C(=O)N(C)C)c3)cnc2O[C@H]1CN(C)C(=O)Cc1ccccn1
→ -4.9[16.7 µM] | 7.0
C[C@H](CO)N1C[C@H](C)[C@@H](CN(C)S(=O)(=O)c2ccc(F)cc2)Oc2ccc(NS(C)(=O)=O)cc2CC1=O
→ -6.1[16.7 µM] | 3.4
O=C(C[C@H]1C[C@H]2c3cc(NC(=O)CC4CC4)ccc3O[C@H]2[C@H](CO)O1)NCc1ccccn1
→ 10.7[16.7 µM] | -12.8
C[C@H]1CN([C@@H](C)CO)C(=O)Cc2cc(NS(=O)(=O)c3cn(C)cn3)ccc2O[C@@H]1CN(C)C(=O)Nc1cccc2ccccc12
→ -58.0[16.7 µM] | -20.4
C[C@@H]1CCCCO[C@H](CN(C)CC2CCCCC2)[C@H](C)CN([C@@H](C)CO)C(=O)c2cc(NC(=O)C3CCCCC3)ccc2O1
→ -1.7[16.7 µM] | 14.1
Cc1noc(C)c1NC(=O)N(C)C[C@H]1OCCCC[C@H](C)Oc2ccc(NC(=O)Cc3ccccc3)cc2C(=O)N([C@@H](C)CO)C[C@H]1C
→ 20.3[16.7 µM] | -6.1
C[C@@H]1CCCCO[C@H](CN(C)S(=O)(=O)c2cccs2)[C@H](C)CN([C@H](C)CO)C(=O)c2cc(NC(=O)CCCN(C)C)ccc2O1
→ 15.0[16.7 µM] | 8.4
C[C@H]1CN([C@@H](C)CO)C(=O)Cc2cc(NC(=O)C3CCCCC3)ccc2O[C@H]1CN(C)Cc1ccc2c(c1)OCO2
→ -27.3[16.7 µM] | 6.2
C[C@H]1CN([C@@H](C)CO)C(=O)c2cc(-c3ccccc3)cnc2O[C@@H]1CN(C)C(=O)c1ccccc1F
→ -6.6[16.7 µM] | 3.2
CCCC#Cc1ccc2c(c1)O[C@@H](CN(C)C)[C@H](C)CN([C@@H](C)CO)S2(=O)=O
→ -20.9[16.7 µM] | -6.0

Part of the list above in order of number of heavy atoms, smallest number first.
Values run as follows: Env fusion inh | UUG fidelity
CCCC#Cc1ccc2c(c1)O[C@@H](CN(C)C(=O)C1CCCCC1)[C@@H](C)CN([C@@H](C)CO)S2(=O)=O
→ 29.5[16.7 µM] | 1.6
C[C@H]1CN([C@@H](C)CO)C(=O)Cc2cc(NC(=O)C3CCCCC3)ccc2O[C@H]1CN(C)Cc1ccc2c(c1)OCO2
→ -27.3[16.7 µM] | 6.2
C[C@@H]1CCCCO[C@@H](CN(C)C(=O)Cc2ccccc2)[C@H](C)CN([C@@H](C)CO)C(=O)c2cc(NS(=O)(=O)c3ccccc3)ccc2O1
→ -19.9[16.7 µM] | 8.0

Further results follow:
Values run as follows: Env fusion inh | UUG fidelity
Cc1ccc(-c2ccc3c(c2)O[C@H](CN(C)Cc2cccc(C(=O)O)c2)[C@H](C)CN([C@@H](C)CO)S3(=O)=O)cc1
→ -17.6[16.7 µM] | 10.5
O=C(C[C@@H]1CC[C@H](NC(=O)c2ccncc2)[C@H](CO)O1)NCC1CCCCC1
→ 1.9[16.7 µM] | -0.7
O=C(C[C@@H]1C=C[C@@H](NC(=O)Nc2ccc3c(c2)OCO3)[C@@H](CO)O1)NCc1ccc(Cl)cc1
→ -14.5[16.7 µM] | -4.4
COCC(=O)N(C)C[C@H]1Oc2ncc(-c3ccccc3OC)cc2C(=O)N([C@H](C)CO)C[C@@H]1C
→ -2.8[16.7 µM] | -2.9
C[C@@H]1CN([C@H](C)CO)C(=O)Cc2cc(NS(=O)(=O)c3ccc(Cl)cc3)ccc2O[C@H]1CN(C)S(=O)(=O)c1ccc(Cl)cc1
→ -17.0[16.7 µM] | -4.6
O=C(CCN1CCCCC1)N[C@H]1C=C[C@H](CC(=O)N2CCC(Cc3ccccc3)CC2)O[C@@H]1CO
→ 10.2[16.7 µM] | -2.0
C[C@H](CO)N1C[C@H](C)[C@H](CN(C)CC2CCCCC2)OCCCC[C@H](C)Oc2ccc(NS(=O)(=O)c3cccs3)cc2C1=O
→ -34.1[16.7 µM] | 9.0
CCCN1C[C@@H](C)[C@@H](OC)CN(C)C(=O)c2ccc(NC(=O)c3cccc(OC)c3)cc2OC[C@H]1C
→ -11.0[16.7 µM] | 44.8
CO[C@H]1CN(C)C(=O)c2cc(NC(=O)C3CCOCC3)ccc2OC[C@H](C)N(C(C)=O)C[C@@H]1C
→ 5.0[16.7 µM] | -0.2
C[C@@H]1CCCCO[C@@H](CN(C)S(=O)(=O)c2cccs2)[C@@H](C)CN([C@H](C)CO)C(=O)c2cc(NS(=O)(=O)c3ccc(F)cc3)ccc2O1
→ 7.9[16.7 µM] | -4.6
COc1ccc(NC(=O)Nc2ccc3c(c2)C(=O)N([C@H](C)CO)C[C@H](C)[C@H](CN(C)Cc2ccc(C(=O)O)cc2)O3)cc1
→ -11.9[16.7 µM] | 0.6
O=C(C[C@H]1CC[C@H](NC(=O)C2CC2)[C@H](CO)O1)NCc1ccccc1Cl
→ -18.8[16.7 µM] | 1.1
C[C@H](CO)N1C[C@H](C)[C@@H](CN(C)Cc2ccccc2)Oc2ncc(-c3cncnc3)cc2C1=O
→ 14.7[16.7 µM] | -17.6
C[C@@H]1CN([C@@H](C)CO)C(=O)Cc2cc(NC(=O)C3CC3)ccc2O[C@@H]1CN(C)C(=O)Nc1ccc(C(F)(F)F)cc1
→ 7.4[16.7 µM] | 3.2
O=C(C[C@@H]1CC[C@H](NS(=O)(=O)c2ccc(F)cc2)[C@H](CO)O1)N1CCC(Cc2ccccc2)CC1
→ 26.4[16.7 µM] | 20.5
COc1ccc(CN(C)C[C@H]2OCCCC[C@H](C)Oc3ccc(NS(=O)(=O)c4cn(C)cn4)cc3C(=O)N([C@H](C)CO)C[C@H]2C)cc1
→ 17.4[16.7 µM] | 8.4
C[C@@H]1CN([C@@H](C)CO)C(=O)Cc2cc(NC(=O)Nc3ccccc3)ccc2O[C@@H]1CN(C)C(=O)Nc1ccc2c(c1)OCO2
→ -12.9[16.7 µM] | 9.7
CCCNC(=O)N[C@H]1CC[C@@H](CC(=O)NCCc2ccccc2)O[C@H]1CO
→ -5.3[16.7 µM] | -12.8
O=C(Nc1ccc(F)cc1)N[C@@H]1CC[C@@H](CC(=O)N2CCCCC2)O[C@@H]1CO
→ -1.6[16.7 µM] | -5.9
CC(=O)N(C)C[C@H]1Oc2cc(-c3cccc(C#N)c3)ccc2S(=O)(=O)N([C@H](C)CO)C[C@@H]1C
→ -13.2[16.7 µM] | 10.7
C[C@@H]1CN([C@@H](C)CO)C(=O)c2cc(C3=CCCC3)cnc2O[C@H]1CN(C)C(=O)CN(C)C
→ -24.2[16.7 µM] | 11.3
CCCC#Cc1ccc([C@@H]2[C@H](C#N)N(C(=O)C3CCC3)[C@H]2CO)cc1
→ 9.3[16.7 µM] | 2.0
O=C(C[C@H]1C=C[C@@H](NC(=O)Nc2ccc3c(c2)OCO3)[C@H](CO)O1)NCc1ccc2c(c1)OCO2
→ -16.9[16.7 µM] | 8.3
C[C@H]1CN([C@@H](C)CO)C(=O)Cc2cc(NC(=O)c3ccncc3)ccc2O[C@H]1CN(C)C(=O)NC1CCCCC1
→ 9.4[16.7 µM] | -4.2
CCCC#Cc1ccc([C@@H]2[C@@H](C#N)N(C(=O)C3CCOCC3)[C@H]2CO)cc1
→ -27.2[16.7 µM] | 33.2
C[C@H](CO)N1C[C@H](C)[C@H](CN(C)C(=O)c2ccccc2F)Oc2ncc(-c3cccnc3)cc2C1=O
→ -11.9[16.7 µM] | -22.0
CC(C)NC(=O)N(C)C[C@H]1OCCCC[C@H](C)Oc2ccc(NS(C)(=O)=O)cc2C(=O)N([C@@H](C)CO)C[C@@H]1C
→ -2.3[16.7 µM] | 7.5
CC(=O)N(C)C[C@@H]1Oc2cc(C#CC(C)C)ccc2S(=O)(=O)N([C@@H](C)CO)C[C@@H]1C
→ 0.6[16.7 µM] | 0.1
C[C@@H]1CCCCO[C@@H](CN(C)C(=O)Nc2ccccc2)[C@H](C)CN([C@@H](C)CO)C(=O)c2cc(NC(=O)Cc3ccccc3)ccc2O1
→ -36.3[16.7 µM] | -6.9

Screens (PubChem)

This is a subset; rates above refer to the full screens.
